HIV Env fusion: inhibitors of HIV Env-mediated cell fusion. HeLa-JRFL Env/CEM21 cell fusion, luciferase. inhibition, % at 12.3 µM. hit rate 1.1% among 360,000. AID 651610;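 active means mean replicate inhibition score of at least 50 and every replicate individually at or above 50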;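 further: 0% = plate neutral controls and 100% = maraviroc near 300 nM; one replicate is shown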
MT1-MMP act inh: inhibitors of human MT1-MMP activation. P50281. HT1080 RFP-PRO-GFP cells, GFP/RFP ratio fluorescence, overnight; percent of plate control window, DMSO zero. GFP/RFP ratio change, % at 20 µM. hit rate 0.061% among 360,000;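 active means GFP/RFP ratio change of at least 30% with cell ATP level not reduced by more than half and red fluorescence within 50% of control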; further: strong numbers were not always called active
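Assay system: HT1080 RFP-PRO-GFP cells | Dosing: 20 µM single dose, 1% DMSO | Incubation: Cells overnight before dosing, compound overnight, 37 °C, 5% CO2 | Evaluation: GFP/RFP fluorescence ratio | Control set: DMSO-only wells and HT1080 RFP-L50D-GFP cell wells as references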
Yeast UUG start: modulators of start codon recognition fidelity in yeast | hit rate 0.13% among 350,000 | S. cerevisiae UUG-firefly luciferase reporter, luminescence/redox ratio | activity score, % at 18.7 µM;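 active means replicate mean at a twofold rise or more, about +100% in these data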;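 further: firefly luciferase made from a UUG start codon reports start codon fidelity; reporter light over untreated wells divided by growth signal over untreated wells; some hits fall short of that in this replicate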
eIF4H FP inh: inhibitors of RNA binding by human eIF4H; eIF4H fluorescence polarization binding assay; AID 2012; inhibition, % at 35 µM; hit rate 0.94% among 290,000;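 active means 50% or more with normal probe brightness, or confirmed in later tests; about a fifth of its hits are not listed in these tables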;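 further: calls also rest on retests at 20 µM and on dose response follow-up; 0% = protein and probe with vehicle and 100% = probe without protein; strong numbers were not always called active; many hits fall short of the cut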
Rce1 inhib: blocks yeast Ras-converting enzyme; Q03530; yeast membranes, quenched prenylated peptide cleavage fluorescence; calls only; hit rate 0.27% among 290,000; AID 2563;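 active means fall in fluorescence gain of 50% or more versus controls, with final raw signal at or below 3038400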;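 further: plate controls were neutral control wells for no effect and wells lacking membranes for full effect; tested at 10 µM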
PABP FP inh: PABP-poly(A) binding inhibition | PABP-poly(A) RNA binding, fluorescence polarization | inhibition, % at 35 µM | hit rate 1% among 290,000 | AID 2014;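 active means 50% or more with normal probe brightness, or confirmed in later tests; about a fifth of its hits are not listed in these tables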;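 further: calls also rest on retests at 20 µM and on dose response follow-up; controls were probe without protein and protein plus probe with vehicle; some compounds called inactive have numbers as strong as hits; many hits fall short of the cut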
Target sequence (P11940 whole entry, looked up): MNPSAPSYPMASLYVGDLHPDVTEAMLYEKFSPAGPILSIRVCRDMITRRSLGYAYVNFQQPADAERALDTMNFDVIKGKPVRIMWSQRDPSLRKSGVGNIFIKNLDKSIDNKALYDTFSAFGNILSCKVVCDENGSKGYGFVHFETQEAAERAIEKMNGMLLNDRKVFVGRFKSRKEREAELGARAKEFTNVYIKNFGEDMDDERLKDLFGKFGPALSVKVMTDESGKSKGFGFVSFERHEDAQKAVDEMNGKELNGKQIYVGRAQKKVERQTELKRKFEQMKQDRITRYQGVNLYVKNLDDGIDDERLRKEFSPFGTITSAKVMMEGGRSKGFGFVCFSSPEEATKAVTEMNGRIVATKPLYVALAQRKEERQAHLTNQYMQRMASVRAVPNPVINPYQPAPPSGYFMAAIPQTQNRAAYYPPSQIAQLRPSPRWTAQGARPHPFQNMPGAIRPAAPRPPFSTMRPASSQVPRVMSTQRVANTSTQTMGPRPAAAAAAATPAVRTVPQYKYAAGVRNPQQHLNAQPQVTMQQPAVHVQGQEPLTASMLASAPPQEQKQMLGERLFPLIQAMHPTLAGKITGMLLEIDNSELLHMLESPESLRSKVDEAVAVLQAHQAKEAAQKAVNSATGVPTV
CSC inhib: cancer stem cell inhibition | inhibition, % at 7.5 µM | cancer stem cell-like cells viability, luminescence | hit rate 1.1% among 300,000;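 active means mean at 75% or more and at least half the replicates too; tested in HMLE shEcad cells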;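 further: 0% = median of negative and 100% = median of positive control wells; the first replicate is given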
MT1-MMP act inh RFP: second read-out of MT1-MMP act inh, no call of its own (marks repeat the call); RFP signal change, %; measured here: RFP expression control read;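 0 = vehicle wells; hits needed this value within 50% of zero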
An asterisk follows results filed as active; i = inactive; x = not tested or not shown. The list is partial; count on the stated rates, not on these rows.

no.	compound	Rce1 inhib	eIF4H FP inh	PABP FP inh	HIV Env fusion	MT1-MMP act inh RFP	MT1-MMP act inh	CSC inhib	Yeast UUG start
1	COc1ccc(NC(=O)c2cn(-c3ccccc3)nc2-c2ccncc2)cc1	i	9	0	32	-8	-7	5	x
2	O=C(c1ccc(NS(=O)(=O)c2ccccc2)cc1)N1CCN(Cc2ccc3c(c2)OCO3)CC1	i	-3	-2	x	-10	1	-13	-16
3	CC(=O)Nc1ccc(NC(=O)CSc2n[nH]c(-c3cccs3)n2)cc1	i	x	x	-13	0	1	1	x
4	CCCNCc1cc(OC)c(OCC(=O)Nc2ccccc2)cc1Br	i	1	11	-4	3	2	0	-4
5	CSc1ccccc1NC(=O)c1ccc([N+](=O)[O-])cc1	i	-1	-28	-8	-2	-3	1	x
6	CC(C)CCN1C(Nc2ccccc2)=NC[C@@H]1C	i	-9	7	3	5	1	-11	3
7	CCCCNC(=O)c1nc(C2CCN(S(=O)(=O)c3c(F)cccc3F)CC2)oc1-c1cccc(C(F)(F)F)c1	x	x	x	16	-4	0	x	-12
8	O=C(N/N=C/c1cc([N+](=O)[O-])ccc1Cl)c1ccc2nc[nH]c2c1	i	-8	-1	x	-4	-2	4	-6
9	O=C(Cn1cc(S(=O)(=O)Cc2ccccc2F)c2ccccc21)N1CCOCC1	i	-1	-6	10	-2	0	3	-3
10	CCOC(=O)c1sc(NC(=O)CSc2ncn(-c3ccccc3)n2)nc1C	i	-5	-13	-5	4	-1	6	-16
11	COc1cccc(CN(C)C(=O)c2cccc(S(=O)(=O)NCc3ccccc3)c2)c1OC	i	x	x	19	-4	5	-5	x
12	Cc1nn(-c2ccc(F)cc2)c(C)c1CN1CCN(Cc2ccccc2)C(CCO)C1 (stereo unspecified)	i	-7	24	-8	-2	0	15	-8
13	CCOc1ccc(N2C(=O)c3cccnc3C2=O)cc1	i	-1	6	-72	2	5	4	-20
14	C/C(=N\N=c1/sc2ccccc2n1C)c1ccccn1	i	-14	-4	-20	-1	-1	-11	4
15	CCOC(=O)C1CCN(CCC(=O)Nc2ccc(Br)cc2)CC1	i	-5	10	-19	6	3	4	1
16	COc1ccc(C2/C=C\CN(Cc3ccncc3)CC(=O)N2Cc2ccc(F)cc2)cc1 (stereo unspecified)	i	0	-16	7	-4	-7	-5	-10
17	CC1=CCC2C(=O)N(c3nc(C)cc(C)n3)C(=O)C2C1 (stereo unspecified)	i	-5	-1	17	2	8	4	-7
18	COc1ccc(-c2cccc(NC(=O)c3cccs3)c2)nn1	i	x	x	-62	0	0	-4	-4
19	COc1cccc(C(=O)N2CCN(C3CCC(c4ccccc4)CC3)CC2)c1 (stereo unspecified)	i	2	3	x	-3	4	x	-10
20	O=C(CN1C(=O)S/C(=C/c2ccc(N3CCOCC3)cc2)C1=O)N1CCOCC1	i	5	0	-62	2	-4	-2	-22
21	CN1CCN(c2oc(-c3cccs3)nc2S(=O)(=O)c2ccccc2)CC1	i	-5	-11	x	-4	-7	x	x
22	Cc1nn(C)cc1S(=O)(=O)N1CCN(c2cccc(Cl)c2)CC1	i	0	2	-8	0	3	0	-1
23	CC(=O)Nc1ccc(C2=NN(C)C(=NCc3ccccc3)SC2)cc1	i	4	4	15	-3	5	12	x
24	CCOC(=O)Cn1cc(C(=O)c2ccco2)c2ccccc21	i	4	-4	-3	3	2	12	-34
25	CN(C)c1ccc(N2C(=NC(=O)C3CCCO3)SC3CS(=O)(=O)CC32)cc1 (stereo unspecified)	i	x	x	-8	1	-4	3	-9
26	Cc1ccc2nc(NC(=O)CCNS(=O)(=O)c3cccs3)sc2c1	i	0	1	-68	-3	-1	-7	-11
27	O=C(Nc1nc2ccccc2[nH]1)c1ccc(OC(F)F)cc1	x	-3	3	-139	-6	8	8	-56
28	Cc1cc(C(=O)COC(=O)c2cccnc2Cl)c(C)n1CC1CCCO1 (stereo unspecified)	i	-7	-1	13	-1	0	-15	x
29	Cc1cc(-c2nnc(CCC(=O)NCc3ccc(F)c(F)c3)o2)no1	i	1	-10	0	1	-3	-9	x
30	Cc1nn(C(C)(C)C)c(OC(=O)c2ccc3c(c2)OCO3)c1Sc1ccccc1	i	0	-4	-32	2	0	-6	8

Gathered by group: the compounds so far with bromine
no.	compound	Rce1 inhib	eIF4H FP inh	PABP FP inh	HIV Env fusion	MT1-MMP act inh RFP	MT1-MMP act inh	CSC inhib	Yeast UUG start
4	CCCNCc1cc(OC)c(OCC(=O)Nc2ccccc2)cc1Br	i	1	11	-4	3	2	0	-4
15	CCOC(=O)C1CCN(CCC(=O)Nc2ccc(Br)cc2)CC1	i	-5	10	-19	6	3	4	1

More records:
no.	compound	Rce1 inhib	eIF4H FP inh	PABP FP inh	HIV Env fusion	MT1-MMP act inh RFP	MT1-MMP act inh	CSC inhib	Yeast UUG start
31	Cc1cccc[n+]1CC(=O)c1ccc([N+](=O)[O-])cc1	x	x	x	-10	2	0	x	-21
32	CCCSc1nnc(CSc2nc3ccccc3s2)n1-c1ccccc1	i	-3	-10	36	-15	-6	86*	-19
33	Cc1ccc(-c2nn(C)c(=O)c3ccccc23)cc1CN1CCOCC1	i	4	-8	2	0	-6	3	-28
34	Cc1ccc(N2CC(C(=O)N(C)CC(=O)Nc3ccc(Cl)c(C(F)(F)F)c3)CC2=O)cc1 (stereo unspecified)	x	x	x	31	-6	4	16	-13
35	COc1ccccc1OCCC(=O)OCC(=O)Nc1ccc(Br)cc1	i	-8	-9	7	0	-3	x	x
36	O=C(NNC(=O)C1CC1)Nc1ccc(Cl)cc1	i	-15	-2	x	1	4	8	-10
37	O=C(Nn1c(O)c(C=C2N=c3ccccc3=N2)sc1=S)c1ccccc1Cl	i	-1	30	-19	1	7	x	-1
38	O=C(NCc1cccc(C(F)(F)F)c1)c1cc(Cl)ccc1Cl	i	-8	-7	3	-5	-1	-3	x
39	COc1ccc(N/C=C/C(=C(C#N)C#N)N(C)C)cc1	x	-4	-1	-6	-1	-5	-4	-16
40	Cc1ccc(-n2c(SCC(=O)OC(C)C)nnc2-c2ccncc2)cc1	i	9	5	x	4	0	5	-31
41	Cc1ccc(OCCSc2nc3ccccc3n2CC(=O)O)cc1	i	19	-3	1	2	3	-17	-15
42	Cc1ccc(C)c(Cn2c3ccccc3c3cnn(CC(=O)NCCCN4CCCCC4)c(=O)c32)c1	i	-9	10	16	-3	-5	-13	-5
43	CC(=O)c1ccc(NC(=S)N2CCCC(CO)C2)cc1 (stereo unspecified)	i	-1	-2	x	2	0	-3	x
44	COc1cccc(NC(=O)CN(C)C(=O)C(CCSC)NC(=O)c2ccco2)c1 (stereo unspecified)	x	x	x	1	0	2	x	-5
45	CC(=O)C1=C(O)C(=O)N(Cc2ccccc2)C1c1ccc(N(C)C)cc1 (stereo unspecified)	i	6	1	9	-6	10	-7	-5
46	CCOc1ccc(NC(=O)c2nccnc2CO)cc1	i	-11	-6	-103	3	0	-3	-13
47	CC(=O)Nc1ccc(S(=O)(=O)Nc2nnc(C(C)C)s2)cc1	i	6	6	-6	-1	3	-11	-18
48	CCCc1c(C)nn(C(=O)/C(C#N)=N/Nc2ccccc2[N+](=O)[O-])c1C	i	-4	1	-7	3	0	-11	x
49	O=C(C1CCC(=O)N(C2CC2)C1)N(CCO)Cc1ccccc1 (stereo unspecified)	i	-9	24	-3	2	-1	1	-17

Ordered by molar mass (smallest number first): twelve of the compounds above
no.	compound	Rce1 inhib	eIF4H FP inh	PABP FP inh	HIV Env fusion	MT1-MMP act inh RFP	MT1-MMP act inh	CSC inhib	Yeast UUG start
36	O=C(NNC(=O)C1CC1)Nc1ccc(Cl)cc1	i	-15	-2	x	1	4	8	-10
31	Cc1cccc[n+]1CC(=O)c1ccc([N+](=O)[O-])cc1	x	x	x	-10	2	0	x	-21
43	CC(=O)c1ccc(NC(=S)N2CCCC(CO)C2)cc1 (stereo unspecified)	i	-1	-2	x	2	0	-3	x
49	O=C(C1CCC(=O)N(C2CC2)C1)N(CCO)Cc1ccccc1 (stereo unspecified)	i	-9	24	-3	2	-1	1	-17
47	CC(=O)Nc1ccc(S(=O)(=O)Nc2nnc(C(C)C)s2)cc1	i	6	6	-6	-1	3	-11	-18
41	Cc1ccc(OCCSc2nc3ccccc3n2CC(=O)O)cc1	i	19	-3	1	2	3	-17	-15
33	Cc1ccc(-c2nn(C)c(=O)c3ccccc23)cc1CN1CCOCC1	i	4	-8	2	0	-6	3	-28
45	CC(=O)C1=C(O)C(=O)N(Cc2ccccc2)C1c1ccc(N(C)C)cc1 (stereo unspecified)	i	6	1	9	-6	10	-7	-5
40	Cc1ccc(-n2c(SCC(=O)OC(C)C)nnc2-c2ccncc2)cc1	i	9	5	x	4	0	5	-31
32	CCCSc1nnc(CSc2nc3ccccc3s2)n1-c1ccccc1	i	-3	-10	36	-15	-6	86*	-19
35	COc1ccccc1OCCC(=O)OCC(=O)Nc1ccc(Br)cc1	i	-8	-9	7	0	-3	x	x
42	Cc1ccc(C)c(Cn2c3ccccc3c3cnn(CC(=O)NCCCN4CCCCC4)c(=O)c32)c1	i	-9	10	16	-3	-5	-13	-5
